Sa RN4220 lethal: kills Staphylococcus aureus RN4220; S. aureus RN4220 growth, OD600, 16 h; inhibition, % (no concentration beside the values); hit rate 0.33% among 330,000;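 active means z-score of -3 or lower and OD600 up to 0.18 on both plates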;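 further: plate controls were untreated cells for no effect and reference antibiotic for full effect; stock transfer was 100 nL into about 80 µL; one replicate is shown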
BJeLR viability: BJeLR cell viability loss; BJeLR (HRASV12) viability, CellTiter-Glo ATP luminescence, 48 h; reference of the scale not given here; inhibition, % (no concentration beside the values); hit rate 0.17% among 300,000;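 active means replicate mean above 50%; inconclusive means above 50% but judged a plate artefact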;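 further: 50 nL library stock added to about 25 µL; numbers are from one replicate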
Mtb hypoxia inh: reduces hypoxia-regulated biosensor signal in M. tuberculosis. M. tuberculosis hypoxia-regulated fluorescent reporter, fluorescence. fluorescence inhibition, % (no concentration beside the values). hit rate 0.1% among 300,000. AID 1159583;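 active means 35 to 45% if threefold the growth effect, above 45% if 1.5-fold the growth effect; inactive means the rest, general growth blockers included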;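 further: wells of about 50 µL received 100 nL stock; 0% = vehicle wells and 100% = reference inhibitor wells; whole bacteria with a GFP reporter of the hypoxia response; strong numbers were not always called active; many hits fall short of the cut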
ugtP null kill: kills S. aureus RN4220 lacking UgtP. S. aureus RN4220 ugtP deletion, OD600 growth, 16 h; some inactives read as strong as hits. growth inhibition, % (no concentration beside the values). hit rate 0.54% among 330,000. AID 1259309;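 active means z-score under -3 and OD600 up to 0.15 on both plates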;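 further: plate controls were untreated wells for no effect and antibiotic for full effect; wells of about 80 µL received 100 nL stock; the first replicate is given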
PrP 5UTR inh: inhibition of PrP 5' UTR reporter expression; cell-based PrP 5' UTR mRNA reporter, plate reader; inhibition, % (no concentration beside the values); hit rate 0.35% among 340,000; AID 488862;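 active means every replicate at 50% or more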;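 further: 0 = median of the neutral control wells; tested in H4 reporter cells; numbers are from one replicate; inactives centre near -14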
Autofluor counter: compound fluorescence in toxin protease inhibitor counterscreen | compound autofluorescence counterscreen, microsphere flow cytometry; hits give high values | fluorescence intensity (test concentration not listed) | hit rate 3.1% among 360,000;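 active means at least 3 SD above the mean of all compounds, about 16000 in these data; inconclusive means too few beads counted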;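 further: 100 nL of 1 mM stock went into each well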
Mtb hypoxia inh growth: second read-out of Mtb hypoxia inh, no call of its own (marks repeat the call); growth inhibition, %; measured here: M. tuberculosis growth (absorbance);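 0% = vehicle and 100% = reference antibiotic; read after six days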
* marks the source's active call; other numbers are inactive results; ? = inconclusive; . = no result given; & = joins results of further samples. Hits appear at their usual frequency; overall some 4% were active at least once.

canonical_smiles,Sa RN4220 lethal,BJeLR viability,Mtb hypoxia inh,Mtb hypoxia inh growth,ugtP null kill,PrP 5UTR inh,Autofluor counter
CCOC(=O)c1ccc(NC2Nc3cc(C)nn3S2)cc1 (configuration not stated),-6.3,-2,-10,2,0,-22,3939
Cc1ccccc1N(CC(=O)NC1CCCC1)C(=O)c1csnn1,0.8,-7,2,16,-2,-24,3190
CC1(C)Cc2c(cnn2-c2ccccc2)-c2c1c1ccccc1n2CC(O)CBr (configuration not stated),2.4,5,.,.,-24,-4,2274
Cc1ccc(F)cc1NC(=O)CCc1c(C)nn(-c2ccc(N3CCCCC3)nn2)c1C,-4.1,-19,-5,-2,5,-62,5418
COCCn1c(=NC(=O)c2cccs2)sc2cc(NC(C)=O)ccc21,-0.6,0,-1,9,0,-52,1992
COCCNC(=S)N/N=C/c1c2ccccc2cc2ccccc12,.,-9,.,.,.,0,3642
COC(=O)C(CC(C)C)N1CCC(=O)c2ccccc2S1(=O)=O (configuration not stated),3.1,-11,1,1,6,-18,3794
CCc1ccc2[nH]c(=O)c(CN(CCCN3CCOCC3)C(=O)Nc3ccc(Cl)cc3)cc2c1,.,-1,.,.,.,-9,2440
O=S(=O)(c1ccc(Cl)cc1)N1CCCCC1c1cccnc1 (configuration not stated),5.0,-17,5,10,-2,-3,2181
COc1ccc(NC(C)c2ccccc2)cc1 (configuration not stated),-0.5,3,1,6,7,-7,4002
Cc1ccc(NC(=O)C(=O)NCC2OCCc3ccccc32)cc1 (configuration not stated),-3.2,-5,0,4,-4,-15,4223
CCCc1c(C)c2cc(C)ccc2[nH]c1=O,6.9,6,12,7,-4,-13,2436
CCOc1ccc(S(=O)(=O)Nc2nccs2)cc1,9.4,-3,0,1,0,-16,4449
COc1ccc(NC(=O)N(CCc2ccccc2)Cc2cc3c(C)cc(C)cc3[nH]c2=O)cc1,3.4,-11,-3,0,13,-35,5882
Cc1ccc2[nH]c(=O)c(CN(CCCN3CCOCC3)C(=O)NC3CCCCC3)cc2c1,4.2,-5,2,7,2,-19,22874*
O=C(NC(=S)Nc1ccc2c(c1)OCCO2)c1cccc2ccccc12,6.7,16,1,0,81,36,2569
CC(C)Sc1n[nH]c(=O)n1-c1ccccc1,4.4,2,4,1,4,-19,3937
CC(C)CCNC(=O)NC(=O)COC(=O)C1=COCCO1,-1.5,18,-4,1,-6,-4,4324
Cc1ccc(C)c(-n2nnnc2SCC(=O)Nc2cccc(-c3nnc4n3CCCCC4)c2)c1,3.9,0,3,6,-7,-9,4241
O=C(NC1CCS(=O)(=O)C1)c1cccc(S(=O)(=O)N2CCCCC2)c1 (configuration not stated),6.4,3,8,-2,2,4,4514
CCOc1ccc(S(=O)(=O)N2CCN(CC(O)COc3cccc([N+](=O)[O-])c3)CC2)cc1 (configuration not stated),-0.3,0,1,2,8,9,4658
COc1ccc(C(=NO)C(C)(C)NO)cc1,3.2,.,-2,3,3,.,.
O=C(NCCC1=CCCCC1)C1CCC(CNc2c(N3CCCC3)c(=O)c2=O)CC1 (configuration not stated),1.7,8,-2,8,12,-13,5572
O=C(O)C1CN(C(=O)c2ccccc2)c2cc(Cl)ccc2O1 (configuration not stated),0.6,2,-1,0,9,-5,3825
COc1ccc(OC)c(NC(=O)c2cc(-c3cc(C)cc(C)c3O)n[nH]2)c1,-3.3,0,9,2,13,-15,2952
CC(=O)Nc1cc(C(F)(F)F)ccc1OCCOc1ccccc1,-0.7,2,14,19,-2,-12,21706*
CCCOc1ccc(C(=O)NC(=S)NCc2cccnc2)cc1,-3.9,1,.,.,-19,-87,2475
COc1ccccc1-c1cc(C(=O)O)c2c(=O)n(C)c(=O)n(Cc3ccccc3)c2n1,1.6,-15,-3,3,8,-23,5546
CC[n+]1ccc(C[n+]2ccccc2)c2ccccc21,4.9,.,12,5,7,-9,2431
Cc1ccc(-c2cc(C(=O)NCc3ccc4c(c3)OCO4)[nH]n2)c(O)c1C,0.9,-2,1,17,46,-9,8773

Random excerpt: two compounds from above.
canonical_smiles,Sa RN4220 lethal,BJeLR viability,Mtb hypoxia inh,Mtb hypoxia inh growth,ugtP null kill,PrP 5UTR inh,Autofluor counter
O=C(NC1CCS(=O)(=O)C1)c1cccc(S(=O)(=O)N2CCCCC2)c1 (configuration not stated),6.4,3,8,-2,2,4,4514
COc1ccc(OC)c(NC(=O)c2cc(-c3cc(C)cc(C)c3O)n[nH]2)c1,-3.3,0,9,2,13,-15,2952

The list goes on:
canonical_smiles,Sa RN4220 lethal,BJeLR viability,Mtb hypoxia inh,Mtb hypoxia inh growth,ugtP null kill,PrP 5UTR inh,Autofluor counter
CCN(c1ccccc1)S(=O)(=O)c1ccc(NCC2COc3ccccc3O2)nc1 (configuration not stated),0.1,-8,7,1,-4,-1,7762
CC(Oc1ccc(Cl)cc1)c1ccnn1S(=O)(=O)c1ccc(Cl)cc1 (configuration not stated),-4.0,-1,7,10,18,-14,8236
CCc1noc(C)c1C(=O)N(CC)c1nc2c(C)cccc2s1,-1.0,6,-6,12,-13,-14,5882
Cc1cccc(CS(=O)(=O)Cc2ccc(C(=O)NCc3cccnc3)o2)c1,3.5,2,3,1,-4,-14,3514
Nc1c(C(=O)Nc2ccc(F)cc2)sc(=S)n1-c1ccccc1F,9.5,-10,0,1,5,-35,3206
O=C(CCS(=O)(=O)Cc1ccc(Cl)cc1)NCCCN1CCOCC1,5.1,8,19,2,7,-25,23981*
COC(=O)c1ccc(OC(=O)/C=C/c2ccco2)cc1,14,0,2,0,-9,1,5752
CC=CC(=O)Nc1cccc(C2=NOC3(C2)CC(C(N)=O)N(C(=O)c2ccccc2)C3)c1 (configuration not stated),1.6,.,-1,10,-1,.,.
O=C(NCc1ccccn1)c1cc2ccccc2oc1=O,1.8,0,.,.,3,-36,3018
C#CCOCCOCCOCCNc1nc(N2CCN(C(=O)C(C(C)CC)n3cc(C(N)CO)nn3)CC2)nc(N2CCN(C(=O)C(C(C)CC)n3cc(C(N)COC(=O)C(F)(F)F)nn3)CC2)n1 (configuration not stated),6.9,.,15,14,0,.,.
COc1ccc(/C=C/C(=O)OCC(=O)NC2CCCC2)c(OC)c1,3.5,.,10,4,47,19,8615
CCOC(=O)C1(Cc2ccccc2Cl)CCN(S(C)(=O)=O)CC1,8.7,6,7,6,8,-21,4250
Clc1ccc(Cc2noc(Cc3ccccc3)n2)cc1Cl,0.5,18,2,-1,31,-28,8456
N#Cc1ccc(NC(=O)CN2C(=O)NC3(CCCC3)C2=O)cc1Cl,-0.4,-1,-5,4,-4,-12,3530
COCCCn1c(-c2cccc(Cl)c2)nc2c1c(=O)[nH]c(=O)n2Cc1ccccc1,-2.3,-4,13,4,-4,-19,3623
COc1ccc(N2CCn3c2nc2c3c(=O)n(CCCc3ccccc3)c(=O)n2C)c(OC)c1,1.6,11,-6,-2,-12,-11,?
Cc1onc(-c2ccccc2Cl)c1C(=O)Nc1cccc2nsnc12,4.9,2,.,.,3,-10,2295
Clc1ccc2c(c1)C(c1ccccc1Cl)=NCc1nnc(Br)n1-2,-0.9,5,-5,-6,0,-16,3640
C=CCNC(=S)NNC(=O)c1ccc(OCCC)cc1,-3.5,-5,1,11,-4,-10,3074
COc1ccc(-c2noc(CCCC(=O)Nc3cccnc3)n2)cc1OC,4.6,-2,12,4,11,-22,6067
COc1ccccc1C1NC(=O)NC(C)=C1C(=O)OC1CCCC(C)C1 (configuration not stated),6.3,-1,24,6,3,-16,3693
CCN1CCN(C(=O)C2(NC(=O)Nc3cccc(F)c3)CCCCC2)CC1,2.7,1,-6,0,-7,-18,2910
CC(=O)OCC1OC(Nc2cccc(C)c2)C(OC(C)=O)C(OC(C)=O)C1OC(C)=O (configuration not stated),4.1,13,6,-3,-4,-41,2618
CC(C)c1nc2oc3c(NCc4cccnc4)ncnc3c2c2c1CCC2,2.3,-14,14,6,6,0,3513
Cc1cc(C)n(-c2nc(C)nc(NCc3ccccc3)n2)n1,6.0,1,.,.,-2,-6,1985
CC1CCCN(CCCNC(=O)C2CC(=O)N(c3ccc(F)c(Cl)c3)C2)C1 (configuration not stated),-6.7,-5,2,-3,-2,-13,9357
C/C(=N/NC(=O)c1ccc(O)cc1)c1cccc([N+](=O)[O-])c1,.,7,.,.,.,-45,2374
CC(=O)NC(Cc1ccc(N(CCCl)CCCl)cc1)C(=O)NC(C(=O)O)C(C)C (configuration not stated),3.1,-5,5,-3,1,-16,3512
CC(=O)Nc1cc(NC(=O)C2C3C=CC(C3)C2C(=O)O)ccc1Cl (configuration not stated),1.3,-2,4,8,-6,-23,3074
COc1cccc(CNC(=O)Cc2c(C(=O)O)[nH]c3ccccc23)c1,3.1,2,-5,6,-1,-28,8206
CC1(C)Cc2nc3sc(C(=O)NCCCO)c(N)c3cc2CS1,1.1,-3,7,9,-6,-38,3224
COc1ccc(C(=O)NCCN2C(=O)S/C(=C\c3cccnc3)C2=O)cc1[N+](=O)[O-],5.0,-4,1,10,1,-29,4897
N/C(=N\OC(=O)c1cccs1)c1cccc([N+](=O)[O-])c1,.,-1,.,.,.,-50,1937
COc1cc2cc(CN(CCCN3CCOCC3)Cc3nnnn3Cc3ccccc3)c(=O)[nH]c2cc1OC,7.5,6,-8,-7,17,-9,3248
Cc1c(/C=N/O)c2ccccn2c1C(=O)c1ccc(F)cc1,.,2,.,.,.,-20,4145
Cc1ccc(NS(=O)(=O)c2cccc(C(=O)NCCCn3ccnc3)c2)cc1,1.9,-3,3,-5,2,-14,6487
COc1ccccc1OCC(=O)Nc1c2c(nn1-c1ccccc1)CS(=O)(=O)C2,4.4,0,-8,-8,10,-3,4366
COC(=O)c1ccccc1S(=O)(=O)N1CCC(c2nc3ccccc3o2)CC1,7.1,-10,1,5,3,.,10025
O=C(NC12CC3CC(CC(C3)C1)C2)N1CCC(O)(c2ccc3c(c2)OCO3)CC1,5.0,-4,2,-6,4,-11,9607
COC(=O)C1C(=O)CC(C)(O)C(C(=O)OC)C1c1ccccc1F (configuration not stated),0.9,11,.,.,0,-16,4560
C=CCNC(=O)COc1cc(C)cc(C)c1C,0.4,8,19,13,8,-41,4335
COC(=O)C1(C)NC(c2ccc(O)cc2)C2C(=O)N(c3ccc4c(c3)OCCO4)C(=O)C21 (configuration not stated),2.0,4,0,4,2,-12,4414
CC(C)c1nnc(NC(=O)CCC(=O)N2CCN(C3c4ccccc4-c4ccccc43)CC2)s1,4.6,-15,5,4,-10,-14,2117
Cc1ccc(S(=O)(=O)Cn2nnnc2CN2CCN(Cc3ccc4c(c3)OCO4)CC2)cc1,4.6,3,.,.,7,-26,3916
O=C(NNS(=O)(=O)c1ccc(F)cc1)c1cc2ccccc2cc1O,2.1,3,-3,6,-8,-13,3757
COc1ccc(C2=CC(c3ccco3)n3ncnc3N2)cc1 (configuration not stated),3.0,.,-1,0,-6,-13,3489
O=C(NCCSc1ncc(-c2ccc(F)cc2)[nH]1)c1ccco1,4.1,1,8,11,11,-15,5225
Cc1cc(C)c(/C=C(\C#N)S(=O)(=O)c2ccccc2)[nH]1,3.0,1,10,-5,2,-8,6403
N#C/C(=C/c1cc(Cl)c(O)c(Cl)c1)C(=O)N1CCCCC1,29,5,10,-3,13,-10,3957
Cc1ccc(S(=O)(=O)Nc2cc(C)c(O)c(Sc3n[nH]c(C)n3)c2)cc1,0.8,-8,-5,5,9,-20,3557
NNC(=O)c1ccncc1,-0.4,.,.,.,-3,-16&-16,6085
CC(C)(C)C(=O)NC(CC(=O)O)c1ccccc1 (configuration not stated),4.6,-19,2,-7,4,-7,4116
O=C(CCl)NNC(=O)c1c(O)c2ccccc2[nH]c1=O,18,7,13,17,11,0,5951

Limited to ugtP null kill, for some of the entries so far:
SMILES	ugtP null kill
N#C/C(=C/c1cc(Cl)c(O)c(Cl)c1)C(=O)N1CCCCC1	13
NNC(=O)c1ccncc1	-3

Bioassay records as filed in PubChem.
